Screens (PubChem)
ID4 SMM: binders of human ID4 protein. P47928. small molecule microarray, Flag-ID4 binding, fluorescence F/B. calls only. actives 1.2% (n = 31,000);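 active = spot signal over background at p below 0.07 in all four prints; compounds were printed on slides so no solution concentration is given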;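 note: a binder raises fluorescence above local background on the spot; about 2 pmol printed per array spot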
Target sequence (P47928 whole entry, looked up): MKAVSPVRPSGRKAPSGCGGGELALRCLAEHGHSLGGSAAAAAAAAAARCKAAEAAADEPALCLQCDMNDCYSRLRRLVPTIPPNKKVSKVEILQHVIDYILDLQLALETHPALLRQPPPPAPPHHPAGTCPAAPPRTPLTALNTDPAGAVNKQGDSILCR
Calls only; i = inactive; + = active, no number. These rows are one share of the data, so the mix of outcomes need not match the whole.

SMILES	ID4 SMM
COC(=O)c1cc(OC)c(OC)cc1NC(=O)COc1ccccc1Cl	i
O=C(CC1CC1)Nc1ccc2c(c1)[C@@H]1C[C@H](CC(=O)N3CCCCC3)O[C@@H](CO)[C@@H]1O2	i
C[C@@H]1CN([C@@H](C)CO)C(=O)c2cc(-c3ccccc3)cnc2O[C@@H]1CN(C)Cc1ccccc1	i
CCCN(C)C[C@H]1Oc2cc(-c3ccc(OC)cc3)ccc2S(=O)(=O)N([C@@H](C)CO)C[C@H]1C	i
Cc1cc(Cl)c(S(=O)(=O)N2CCCCC2)cc1OCC(N)=O	i
O=C(NCC[C@H]1CC[C@@H](NC(=O)C2CCCCC2)[C@@H](CO)O1)c1ccc(F)cc1	i
COc1ccc(NC(=O)Cn2cnc3ccccc3c2=O)cc1OC	i
CCOc1cc(/C=C2\SC(=S)NC2=O)cc(Cl)c1OC(=O)c1ccc(OC)cc1	i
CC(C)C#Cc1cnc2c(c1)C(=O)N([C@@H](C)CO)C[C@H](C)[C@@H](CN(C)C(=O)c1ccccc1)O2	i
CCCC#Cc1ccc2c(c1)O[C@H](CN(C)CCC)[C@@H](C)CN([C@H](C)CO)S2(=O)=O	i
CCCc1cn(CC[C@@H]2CC[C@H](NC(=O)C3CCCC3)[C@@H](CO)O2)nn1	i
CCc1cc(C(=O)OC)c(NC(=S)Nc2ccc(OC)cc2[N+](=O)[O-])s1	i
COC(=O)c1ccc(NC(=O)C2Cc3ccccc3CN2S(=O)(=O)c2ccc(F)cc2)cc1 (configuration not stated)	i
COC(=O)c1ccccc1NC(=O)CN(c1ccc(F)c(Cl)c1)S(C)(=O)=O	i
O=C(COc1ccc(Cl)cc1Br)Nc1cccnc1	i
COc1cc(Cl)c(C)cc1NC(=O)CSc1nc2ccccc2s1	i
COc1cc2c(cc1NC(=O)C(C)Oc1ccc(Br)cc1)oc1ccccc12 (configuration not stated)	i
O=C(NCc1nc2ccccc2n1Cc1ccccc1)c1ccccc1	i
CCOC(=O)c1c(NC(=O)c2ccc(C)c(S(=O)(=O)N3CCOCC3)c2)sc(C)c1C	i
Cc1ccc(-c2cnc3c(c2)C(=O)N([C@@H](C)CO)C[C@@H](C)[C@H](CN(C)C(=O)CN(C)C)O3)cc1	i
CC(Sc1nc2ccccc2c(=O)[nH]1)C(=O)Nc1cccc(Cl)c1 (configuration not stated)	i
COC(=O)c1ccccc1NC(=O)CNC(=O)c1ccc(OC)c(OC)c1	i
O=C(Nc1ccccc1C(=O)O)c1cccc(S(=O)(=O)Nc2ccccc2F)c1	i
C/C=C/c1ccc2c(c1)O[C@@H](CN(C)Cc1cccnc1)[C@@H](C)CN([C@H](C)CO)S2(=O)=O	i
CCn1c(SCC(=O)Nc2cccc3ccccc23)nnc1-c1ccc(Cl)c(Cl)c1	i
O=C(C[C@H]1C[C@@H]2c3cc(NC(=O)Nc4ccc(C(F)(F)F)cc4)ccc3O[C@@H]2[C@@H](CO)O1)NCc1cc(F)ccc1F	i
COc1ccc(C)cc1S(=O)(=O)N(C)CC(=O)N1CCN(c2ccccc2F)CC1	i
O=C(CSc1nccc(=O)[nH]1)N1CCc2ccccc21	i
C[C@@H]1CN([C@@H](C)CO)C(=O)c2cc(C#Cc3ccccn3)cnc2O[C@@H]1CN(C)Cc1ccccc1	i
C[C@@H]1CN([C@H](C)CO)C(=O)c2cc(C#C[C@@H](C)O)cnc2O[C@H]1CN(C)Cc1cccc(F)c1	i
CCn1c(SCC(=O)Nc2ccc(Br)c(Cl)c2)nnc1-c1ccccc1O	i
CCn1c(C(=O)O)c(CC(=O)Nc2ccccc2F)c2ccccc21	i
Cc1cc(C)c2oc(-c3ccc(NC(=O)COc4ccc([N+](=O)[O-])cc4)cc3)nc2c1	i
N#Cc1c(NC(=O)Cn2c(=O)oc3ccccc32)sc2c1CCCC2	i
CCOC(=O)c1c(NC(=O)c2ccc(C)c(S(=O)(=O)N3CCOCC3)c2)sc2c1CCC2	i
COc1ccc(C)cc1S(=O)(=O)N(C)CC(=O)Nc1ccc2c(c1)OCCO2	i
CC(C)CC#Cc1cnc2c(c1)C(=O)N([C@H](C)CO)C[C@H](C)[C@@H](CN(C)C(=O)c1ccccc1)O2	i
O=C(CCn1cnc2ccccc2c1=O)Nc1ccc(F)c(C(F)(F)F)c1	i
COC(=O)c1ccccc1NC(=O)CSc1nc2c(cc1C#N)CCCCC2	i
O=c1cc(Nc2ccccc2)cc[nH]1	i
C[C@H]1CN([C@@H](C)CO)C(=O)c2cc(C#CC(C)(C)O)cnc2O[C@@H]1CN(C)Cc1cccc(F)c1	i
C[C@@H]1CN([C@H](C)CO)S(=O)(=O)c2ccc(-c3ccccc3F)cc2O[C@@H]1CN(C)CC1CC1	i
COc1ccc(Cl)cc1NC(=O)C(C)n1cc([N+](=O)[O-])cn1 (configuration not stated)	i
C[C@@H]1CN([C@H](C)CO)S(=O)(=O)c2ccc(C3=CCCC3)cc2O[C@H]1CN(C)C(=O)Cc1ccncc1	i
CNC[C@@H]1Oc2cc(C#CCOC)ccc2S(=O)(=O)N([C@H](C)CO)C[C@H]1C	i
C=CC1CN(C(C)=O)CCC1CCC(=O)c1ccnc2ccccc12 (configuration not stated)	i
Cc1cc(C)cc(N(C(C)C(=O)Nc2cccc(Cl)c2)S(C)(=O)=O)c1 (configuration not stated)	i
CCCNC(=O)N[C@@H]1C=C[C@H](CC(=O)N2CCN(C)CC2)O[C@@H]1CO	i
COc1ccc(C(C)C)cc1S(=O)(=O)n1nnc2ccccc21	i
CCCn1c2ccccc2c2nnc(SCC(N)=O)nc21	i
Cc1ccc(C)c(NC(=O)CSc2cc(C)c3ccccc3n2)c1	i
C/C=C/c1ccc([C@H]2[C@@H](CO)N(C(=O)NC3CCCCC3)[C@H]2C#N)cc1	i
C[C@@H]1CN([C@H](C)CO)S(=O)(=O)c2ccc(C#Cc3ccccc3F)cc2O[C@@H]1CN(C)C	i
COc1cc(NC(=O)COc2ccc(C(C)C)cc2)ccc1-c1cc2ccccc2oc1=O	i
Cc1ccc(S(=O)(=O)NC(C)C(=O)Nc2c(C)cc(C)cc2C)cc1 (configuration not stated)	i
Cc1ccc(-c2cnc3c(c2)C(=O)N([C@H](C)CO)C[C@@H](C)[C@H](CN(C)C)O3)cc1	i
COc1ccc(Oc2c(C(F)(F)F)oc3cc(OCC(=O)Nc4ccccc4F)ccc3c2=O)cc1	i
COC(=O)c1ccccc1NC(=O)COc1ccc(C(C)C)cc1Br	i
CC(C)CC#Cc1ccc2c(c1)O[C@H](CN(C)CC1CC1)[C@H](C)CN([C@H](C)CO)S2(=O)=O	i
C=CCNC(=O)[C@H]1[C@@H]2C(=O)O[C@@H](c3ccccc3)[C@@H](c3ccccc3)N2[C@@H](c2ccccc2OCCO)[C@]12C(=O)Nc1ccc(C#CC3(O)CCCCCC3)cc12	i

Other structures follow.
SMILES	ID4 SMM
COc1cccc(C(=O)N(Cc2nc(-c3ccc(C)cc3)no2)C(C)C)c1	i
O=C(NCCCN1CCCC1=O)Nc1ccc(Br)cc1	i
C[C@H]1CN([C@@H](C)CO)C(=O)c2cc(Br)cnc2O[C@H]1CN(C)C(=O)c1ccccc1	i
CN(C)C(=O)C[C@@H]1C=C[C@@H](NC(=O)C2CCC2)[C@@H](CO)O1	i
CS(=O)(=O)N(CC(=O)Nc1cc(Cl)ccc1Oc1ccccc1)c1ccccc1Br	i
CCOc1ccc(Oc2nc(N(CC)CC)nc(N3CCOCC3)n2)nn1	i
COc1cc(OC)c(NC(=O)CSc2nnc(-c3ccncc3)n2C)cc1Cl	i
C[C@@H]1CN([C@@H](C)CO)S(=O)(=O)c2ccc(C#Cc3ccncc3)cc2O[C@@H]1CN(C)S(=O)(=O)c1ccc(F)cc1	i
C[C@@H](NC(=O)C[C@H]1C[C@@H]2c3cc(NS(=O)(=O)c4ccc(F)cc4)ccc3O[C@@H]2[C@@H](CO)O1)c1ccccc1	i
C[C@@H]1CN([C@@H](C)CO)C(=O)c2cc(C#Cc3ccccc3F)cnc2O[C@@H]1CN(C)C(=O)C1CCC1	i
CC(C(=O)Nc1cccc([N+](=O)[O-])c1)N1C(=O)C2C3C=CC(C4CC34)C2C1=O (configuration not stated)	i
Cc1ccc(CN(C)C[C@H]2OCc3cnnn3CCCC(=O)N([C@H](C)CO)C[C@@H]2C)cc1	i
COc1cc(NC(=O)CSc2nc(C)cc(C)n2)cc(OC)c1OC	i
COc1cccc(-c2cnc3c(c2)C(=O)N([C@@H](C)CO)C[C@@H](C)[C@H](CN(C)Cc2ccccc2)O3)c1	i
O=S(=O)(N[C@@H]1CCCN(Cc2cccc(OCCO)c2)C1)c1cc(Cl)ccc1Cl	+
O=C(NCC[C@H]1CC[C@H](NC(=O)C2CCCCC2)[C@H](CO)O1)c1ccc(F)cc1	i
O=c1[nH]ccc2c(O)cccc12	i
Cc1nn(C(C)C(=O)Nc2cc(C(F)(F)F)ccc2Cl)c(C)c1[N+](=O)[O-] (configuration not stated)	i
C[C@H]1CN([C@@H](C)CO)C(=O)c2ccccc2-c2ccccc2CO[C@@H]1CN(C)Cc1ccncc1	i
COc1ccc(C(=O)CSc2nnc(-c3ccccc3O)n2C)cc1	i
C[C@H]1CN([C@@H](C)CO)C(=O)c2cc(C#CCN(C)C)cnc2O[C@H]1CN(C)Cc1ccncc1	i
COc1ccc(NC(=O)CSc2n[nH]c(N)n2)cc1Cl	i
CCCC#Cc1cnc2c(c1)C(=O)N([C@@H](C)CO)C[C@@H](C)[C@@H](CN(C)C(=O)CCN1CCCCC1)O2	i
Cc1cc(C)c(S(=O)(=O)N(CC(=O)Nc2ccccc2C(F)(F)F)C2CCCCC2)c(C)c1	i
CN(C)c1ccc2c(c1)[C@@H]1C[C@H](CC(=O)NCCN3CCCCC3)O[C@H](CO)[C@@H]1O2	i
COc1ccc(C#Cc2cnc3c(c2)C(=O)N([C@@H](C)CO)C[C@@H](C)[C@@H](CN(C)CC2CCOCC2)O3)cc1	i
Cc1ccccc1-c1cnc2c(c1)C(=O)N([C@H](C)CO)C[C@H](C)[C@H](CN(C)C(=O)CC1CC1)O2	i
O=C(CC1CCOCC1)Nc1ccc(I)cc1	i
CCCN(C)C[C@H]1Oc2cc(C3=CCCCC3)ccc2S(=O)(=O)N([C@H](C)CO)C[C@@H]1C	i
COc1ccc(NC(=O)C(=O)NCC(=O)Nc2ccccc2OC)cc1	i

Quoted from above for reference:
SMILES	ID4 SMM
COc1cc(NC(=O)CSc2nc(C)cc(C)n2)cc(OC)c1OC	i
COc1cccc(-c2cnc3c(c2)C(=O)N([C@@H](C)CO)C[C@@H](C)[C@H](CN(C)Cc2ccccc2)O3)c1	i
O=S(=O)(N[C@@H]1CCCN(Cc2cccc(OCCO)c2)C1)c1cc(Cl)ccc1Cl	+
O=C(NCC[C@H]1CC[C@H](NC(=O)C2CCCCC2)[C@H](CO)O1)c1ccc(F)cc1	i
O=c1[nH]ccc2c(O)cccc12	i
Cc1nn(C(C)C(=O)Nc2cc(C(F)(F)F)ccc2Cl)c(C)c1[N+](=O)[O-] (configuration not stated)	i
C[C@H]1CN([C@@H](C)CO)C(=O)c2ccccc2-c2ccccc2CO[C@@H]1CN(C)Cc1ccncc1	i
COc1ccc(C(=O)CSc2nnc(-c3ccccc3O)n2C)cc1	i
C[C@H]1CN([C@@H](C)CO)C(=O)c2cc(C#CCN(C)C)cnc2O[C@H]1CN(C)Cc1ccncc1	i
COc1ccc(NC(=O)CSc2n[nH]c(N)n2)cc1Cl	i
CCCC#Cc1cnc2c(c1)C(=O)N([C@@H](C)CO)C[C@@H](C)[C@@H](CN(C)C(=O)CCN1CCCCC1)O2	i
Cc1cc(C)c(S(=O)(=O)N(CC(=O)Nc2ccccc2C(F)(F)F)C2CCCCC2)c(C)c1	i
CN(C)c1ccc2c(c1)[C@@H]1C[C@H](CC(=O)NCCN3CCCCC3)O[C@H](CO)[C@@H]1O2	i
COc1ccc(C#Cc2cnc3c(c2)C(=O)N([C@@H](C)CO)C[C@@H](C)[C@@H](CN(C)CC2CCOCC2)O3)cc1	i
Cc1ccccc1-c1cnc2c(c1)C(=O)N([C@H](C)CO)C[C@H](C)[C@H](CN(C)C(=O)CC1CC1)O2	i
O=C(CC1CCOCC1)Nc1ccc(I)cc1	i

Going on with the list:
SMILES	ID4 SMM
CCC(=O)N[C@@H]1C=C[C@@H](CC(=O)NCc2ccccc2F)O[C@H]1CO	i
CCCN(C)C[C@H]1Oc2cc(C#Cc3ccc(F)cc3)ccc2S(=O)(=O)N([C@H](C)CO)C[C@H]1C	i
CC(=O)N(C)C[C@H]1Oc2ncc(C#Cc3ccccc3)cc2C(=O)N([C@H](C)CO)C[C@H]1C	i
COC(=O)c1cccc(NC(=O)CSc2nnc(-c3ccc(Cl)cc3)n2C)c1	i
O=[N+]([O-])c1ccc(OCc2nc(-c3cccnc3)no2)cc1	i
COCC#Cc1cnc2c(c1)C(=O)N([C@@H](C)CO)C[C@@H](C)[C@@H](CN(C)C(=O)C1CCOCC1)O2	i
C[C@@H]1CN([C@@H](C)CO)C(=O)c2cc(C#Cc3ccccc3)cnc2O[C@@H]1CN(C)C(=O)C1CC1	i
C[C@@H]1CN([C@H](C)CO)S(=O)(=O)c2ccc(C#CC3CC3)cc2O[C@@H]1CN(C)S(C)(=O)=O	i
CC1CCN(S(=O)(=O)c2cccc(C(=O)NC(C)(C)CO)c2)CC1	i
CSc1ccccc1NC(=O)CN(c1cc(C(F)(F)F)ccc1Cl)S(C)(=O)=O	i
Cc1nn(C)c(C)c1/C=C/C(=O)C(C)(C)C	i
COc1ccc(S(=O)(=O)Nc2ccc3c(c2)[C@H]2C[C@@H](CC(=O)O)O[C@H](CO)[C@H]2O3)cc1	i
C[C@H]1CN([C@@H](C)CO)C(=O)c2cc(C#Cc3ccccc3)cnc2O[C@@H]1CN(C)C(=O)C1CC1	i
C[C@H](CO)N1C[C@H](C)[C@@H](CN(C)Cc2ccccc2)Oc2ncc(C3=CCCC3)cc2C1=O	i
COc1ccccc1NC(=O)c1ccc(OC(C)C(=O)Nc2cc(Cl)ccc2C)cc1 (configuration not stated)	i
CCn1c(SCC(=O)Nc2sc3c(c2C#N)CCC(C(C)(C)C)C3)nnc1-c1ccco1 (configuration not stated)	i
COc1cc(NC(=O)COc2cc(C)c(Br)c(C)c2)c(OC)cc1Cl	i
C[C@@H]1CN([C@@H](C)CO)S(=O)(=O)c2ccc(-c3ccc(C#N)cc3)cc2O[C@@H]1CN(C)Cc1ccccn1	i
